Source: PubChem BioAssay
CtBP-E1A inh: inhibitors of CtBP/E1A interaction. AlphaScreen GST-E1A/His-CtBP binding, 1536-well; stronger effect = lower value; control for the full effect not named in the record. activity change, % (test concentration not listed). actives 0.49% (n = 340,000). AID 651724; in the data active means activity change below about -65%; inconclusive means about -30% to -65%; inactive means above about -30%; note: % is set by controls: 0 for no effect and ±100 for the full control effect; compound concentration not given in the record
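Homogeneous bead-based format: GST-tagged E1A captured on glutathione donor beads, His-tagged CtBP on nickel acceptor beads; compounds precede bead addition by 2 h at 37 °C.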
TRPML1 agonist: human mucolipin-1 channel agonism; Q9GZU1; TRPML1-expressing cells, Ca2+ dye fluorescence, FDSS; host cell line not named in the record; reference of the full effect not given here; activation, % (test concentration not listed); actives 0.12% (n = 410,000); AID 624414; in the data active = activation above about 50%; inconclusive = about 30% to 50%; inactive = below about 30%; note: 0% is about no effect; the text of the record puts the active cut at 80%
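In this qHTS format, compounds were pin-transferred onto Ca8-dye-loaded TRPML1-DL cells induced with Tet overnight, and intracellular Ca2+ fluorescence was recorded kinetically for 110 s after a 10 s baseline. A subsequent 4uM final 54-4 (EC80) addition followed by a second 110 s read served as the antagonist phase.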
Six1-Eya2 blk: blocks human Six1 binding to Eya2 | Q15475+O00167 | AlphaScreen GST-Six1/His-Eya2 binding, biochemical; stronger effect = lower value; control for the full effect not named in the record | activity change, % (test concentration not listed) | actives 0.56% (n = 360,000) | AID 651725; in the data active = activity change below about -65%; inconclusive = about -30% to -65%; inactive = above about -30%; note: % is set by controls: 0 for no effect and ±100 for the full control effect; compound concentration not given in the record
Target sequence (O00167 whole entry, looked up): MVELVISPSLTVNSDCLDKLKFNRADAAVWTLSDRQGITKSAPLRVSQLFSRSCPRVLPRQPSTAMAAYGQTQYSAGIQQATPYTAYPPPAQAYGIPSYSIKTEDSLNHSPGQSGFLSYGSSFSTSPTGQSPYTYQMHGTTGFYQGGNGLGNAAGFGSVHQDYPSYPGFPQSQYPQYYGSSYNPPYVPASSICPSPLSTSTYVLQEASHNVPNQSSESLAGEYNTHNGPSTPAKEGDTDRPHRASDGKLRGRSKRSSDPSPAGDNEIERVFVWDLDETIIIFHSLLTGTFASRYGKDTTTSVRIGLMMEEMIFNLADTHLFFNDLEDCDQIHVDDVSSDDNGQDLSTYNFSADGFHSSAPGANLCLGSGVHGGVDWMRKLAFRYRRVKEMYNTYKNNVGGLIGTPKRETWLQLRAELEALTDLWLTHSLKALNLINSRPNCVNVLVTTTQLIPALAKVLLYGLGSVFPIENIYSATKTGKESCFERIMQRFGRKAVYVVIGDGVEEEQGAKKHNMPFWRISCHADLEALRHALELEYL
Target sequence (Q15475 whole entry, looked up): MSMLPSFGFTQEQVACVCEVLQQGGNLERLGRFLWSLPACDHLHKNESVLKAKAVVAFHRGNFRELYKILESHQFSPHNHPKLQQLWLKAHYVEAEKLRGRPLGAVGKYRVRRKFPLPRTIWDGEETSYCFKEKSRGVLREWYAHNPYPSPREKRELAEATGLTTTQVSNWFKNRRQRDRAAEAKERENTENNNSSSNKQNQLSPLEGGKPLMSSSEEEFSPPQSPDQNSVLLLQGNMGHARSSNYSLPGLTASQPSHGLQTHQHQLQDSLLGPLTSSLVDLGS
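AlphaScreen luminescence read after one hour at 37 °C in darkness. Pin-transferred compounds met GST-Six1 and His-Eya2 protein (5X stock 250 nM/500 nM) plus glutathione donor and Ni-chelate acceptor beads (5X, 50 ug/mL).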
TRPML1 inh: inhibitors of human TRPML1 channel. Q9GZU1. TRPML1-inducible cells, Ca2+ dye fluorescence, FDSS; stronger effect = lower value; inhibition of EC80 agonist-evoked calcium signal. activity change, negative = inhibition, % (concentration not given with the values). actives 0.02% (n = 390,000). AID 624415; in the data active means activity change below about -50%; inconclusive means about -30% to -50%; inactive means above about -30%;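 note: stimulus is agonist 54-4 at its EC80 concentration; % is set by controls: 0 for no effect and ±100 for the full control effect; compound concentration not given in the record; the text of the record puts the active cut at -80%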
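TRPML1-DL cells, Tet-induced overnight (~16 h, 37 °C) at 1,500 cells/well, were loaded with Ca8 no-wash dye plus quencher for 45-90 min at room temperature. Compounds were pinned during FDSS kinetic reading; agonist 54-4 at EC80 (4 uM final) then added.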
D2 agonist: human D2 receptor agonism in beta-arrestin assay. P14416. actives 0.084% (n = 360,000). DiscoveRx PathHunter D2 beta-arrestin, luminescence, 90 min; 100% = 57 uM dopamine signal. activation, % (concentration not given with the values); in the data active = activation above about 40%; inconclusive = about 15% to 40%; inactive = below about 15%; note: compound concentration not given in the record; the text of the record calls up to 30% inactive
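DiscoveRx PathHunter D2 beta-arrestin cells (2,100/well) attached overnight, then compound-stimulated 90 min at 37 C in HBSS/10 mM HEPES/0.1% Tween-20 buffer; beta-galactosidase complementation read by luminescence after 1 h at ambient temperature. Dopamine 57 uM final (EC100) as control.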
PINK1 expr mod: PINK1 expression modulation | PINK1 immunofluorescence, high-content cytometry, 24 h | Potency, µM (top dose mostly 76.6 µM), for inactives: at the top dose activation (PINK1 increase), most hits filed as activators | actives 0.2% (n = 410,000); active = well fitted activation curve with a large enough effect; inconclusive = small, poorly fitted or top-dose-only effect; inactive = flat fitted curve, though single readings scatter; cell line not stated here;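 note: potency is the fitted concentration of half-maximal effect; % of control where 0% means no effect; nearly all actives have a fitted effect of over 65% in size; a mitochondrial uncoupler was the plate control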
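PINK1 protein, normally rapidly degraded, was detected by immunofluorescence after 24 hour compound treatment of a stable cell line. Titration data (5 concentrations) came from laser-scanning cytometry, with CCCP-treated wells as controls.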
* = called active by the depositor; ? = inconclusive; . = not tested or not shown; & = joins results of further samples; [ ] = dose if it differs, or a comment.

Start of the data: the first 5 records (preview)
SMILES	CtBP-E1A inh	TRPML1 agonist	Six1-Eya2 blk	TRPML1 inh	D2 agonist	PINK1 expr mod
COc1ccc2nc(N(Cc3cccnc3)C(=O)c3ccc4c(c3)OCCO4)sc2c1	.	-0.5	.	3	.	1.2%
C/C(N)=C(/C#N)C(=O)COC(=O)Cc1coc2cc(C)ccc12	-1	0.6	2	-23	0.3	-2.6%
Nc1nc(SC23CC4CC(CC(C4)C2)C3)ns1	5	-0.3	2	6	-1.9	-0.9%
Cc1cc(C)nc(Nc2n[nH]c(-c3ccccc3C)n2)n1	10	1.7	-1	56	3.6	0.1%
CC1(C)NC(=O)C(CCc2ccccc2)NC1=O (stereo not drawn)	1	-0.6	11	.	-2.4	-0.2%

This part in full, repeating the preview:
SMILES	CtBP-E1A inh	TRPML1 agonist	Six1-Eya2 blk	TRPML1 inh	D2 agonist	PINK1 expr mod
COc1ccc2nc(N(Cc3cccnc3)C(=O)c3ccc4c(c3)OCCO4)sc2c1	.	-0.5	.	3	.	1.2%
C/C(N)=C(/C#N)C(=O)COC(=O)Cc1coc2cc(C)ccc12	-1	0.6	2	-23	0.3	-2.6%
Nc1nc(SC23CC4CC(CC(C4)C2)C3)ns1	5	-0.3	2	6	-1.9	-0.9%
Cc1cc(C)nc(Nc2n[nH]c(-c3ccccc3C)n2)n1	10	1.7	-1	56	3.6	0.1%
CC1(C)NC(=O)C(CCc2ccccc2)NC1=O (stereo not drawn)	1	-0.6	11	.	-2.4	-0.2%
CC1=C(C(=O)N(C(C)C)C(C)C)CC(CC(=O)NCCCCc2ccccc2)C(=O)N1Cc1ccccc1 (stereo not drawn)	-2	1.1	0	-1	-7.0	1.3%
CN(C)C(CNC(=O)CCOc1ccccc1)c1ccco1 (stereo not drawn)	-1	-0.1	7	-13	-0.1	1.0%
COc1ccc(N2CC(C(=O)N3CCC(c4nc5ccccc5[nH]4)CC3)CC2=O)cc1 (stereo not drawn)	21	0.2	1	5	-0.4	1.8%
O=C(OCc1ccccc1)N1CCC2CC1c1ccc(-c3ccc4c(c3)OCO4)cc12 (stereo not drawn)	1	-0.5	0	-10	-7.5	0.0%
CC(=O)C1=C(C)Nc2ncnn2C1c1ccccc1OCc1ccccc1 (stereo not drawn)	2	-1.8	-3	14	-1.1	-1.2%
CCOC(=O)c1[nH]c2cc3c(cc2c1NC(=O)CN1CC(C)CC(C)C1)OCO3 (stereo not drawn)	4	0.4	8	4	-12	7.1%
OCCN(Cc1ccccc1)C(=S)Nc1ccc(Cl)cc1Cl	0	-1.0	3	12	-1.8	1.8%
CS(=O)(=O)N(CCc1ccccc1)CC(=O)N1CCN(c2ccc(F)cc2)CC1	5	-0.9	1	-1	-1.8	1.0%
CC(=O)c1ccc(NC(=O)c2ccc3c(c2)C(=O)N(c2ccccn2)C3=O)cc1	-4	0.3	-6	2	-5.7	0.6%
CCOc1ccc(S(=O)(=O)NCC2CCCO2)cc1NC(=O)c1ccccc1F (stereo not drawn)	-3	-0.2	-7	3	-5.4	11%
COCCN1C(=O)COc2ccccc2C1C(=O)NC(C)(C)C (stereo not drawn)	8	-0.1	3	.	.	-0.1%
Cc1nn(-c2cc(Cl)ccc2N)c(=O)c2ccccc12	-19	-0.4	-6	?	-0.9	.
O=C(Nc1c(F)cc(F)cc1Br)c1ccco1	-7	0.0	1	18	5.7	-0.9%[38.3 µM]
COC(=O)c1ccccc1N(C)C(=O)C12CCC(C)(C(=O)O1)C2(C)C (stereo not drawn)	0	0.8	18	0	-3.8	-1.2%
Clc1ccc(-n2ncc3c(NCc4cccs4)ncnc32)cc1	6	0.0	4	27	5.0	.
CCn1cc(C(=O)N[C@H](C(=O)NCCCO)C(C)C)c(=O)c2cc3c(cc21)OCO3	1	.	4	.	-2.2	1.6%
Cc1ccc(NC(=S)N(CCCN2CCC(C)CC2)Cc2ccco2)cc1C	-23	0.5	14	-22	-3.6	-1.8%
CCOc1ccc(N(C(C)C(=O)Nc2cc(Cl)ccc2OC)S(C)(=O)=O)cc1 (stereo not drawn)	.	2.2	.	21	.	4.6%
Cc1ccc(-n2nc(C)c3c(C(=O)Nc4ccc(C)cc4Cl)cc(C)nc32)cc1	.	-0.8	.	-13	.	-0.4%
CCc1ccccc1Nc1nn2c(=O)c3ccc(C(=O)NCc4ccc(C)cc4)cc3nc2s1	.	0.6	.	15	.	-3.5%

2 of the compounds above, in markdown.
| smiles | CtBP-E1A inh | TRPML1 agonist | Six1-Eya2 blk | TRPML1 inh | D2 agonist | PINK1 expr mod |
| --- | --- | --- | --- | --- | --- | --- |
| CS(=O)(=O)N(CCc1ccccc1)CC(=O)N1CCN(c2ccc(F)cc2)CC1 | 5 | -0.9 | 1 | -1 | -1.8 | 1.0% |
| CC(=O)c1ccc(NC(=O)c2ccc3c(c2)C(=O)N(c2ccccn2)C3=O)cc1 | -4 | 0.3 | -6 | 2 | -5.7 | 0.6% |

Continued.
SMILES	CtBP-E1A inh	TRPML1 agonist	Six1-Eya2 blk	TRPML1 inh	D2 agonist	PINK1 expr mod
CCC(c1nnnn1-c1ccc2c(c1)OCCO2)N1CCN(c2ccccn2)CC1 (stereo not drawn)	-2	-1.1	-12	.	.	0.9%
Cc1ccc(/C=C(\NC(=O)c2ccccc2)C(=O)NCCc2ccccn2)o1	-4	0.8	-5	-17	-4.4	1.2%
Cc1ccc(NC(=O)C2=C(O)c3ccccc3N(C)S2(=O)=O)cc1	2	0.8	-4	15	-3.8	1.2%
Cc1nc(Nc2cccc(O)c2)c2c3c(sc2n1)CCC3	?	3.4	-23	16	0.7	1.0%
O=C(CCS(=O)(=O)c1ccc(Br)s1)NCc1ccccc1	5	1.0	-2	-9	0.8	-2.7%
O=C(NCc1ccc2c(c1)OCO2)c1cc(-c2ccncc2)nc2ccccc12	1	1.6	-4	-16	-2.9	0.7%
Cc1cccc(C(=O)NC2CC3CCCC(C2)N3Cc2ccccc2)c1 (stereo not drawn)	-16	0.6	6	4	-4.0	-1.3%
COc1ccc(CNC(=O)/C=C/c2ccc(S(=O)(=O)N3CCOCC3)cc2)cc1	2	0.2	0	25	4.4	1.1%
Cc1ccc(OCc2cc(C(=O)N(C)CCc3ccccc3)no2)cc1C	17	1.8	-2	-14	-0.9	0.4%
CCCCN(C)CCNC(=O)Cn1ncc2c([nH]c3ccccc32)c1=O	.	3.9	.	30	.	3.3%
CN(Cc1ccccc1)C(=O)C1CCN(S(C)(=O)=O)CC1	4	0.6	-4	-7	1.0	1.5%
O=[N+]([O-])c1ccc(S(=O)(=O)N2CCN(Cc3c[nH]c4ccccc34)CC2)cc1	-8	1.8	-6	22	-1.5	-3.2%[38.3 µM]
COCCNc1nnc(SCC(=O)N2CCN(S(=O)(=O)c3ccccc3)CC2)s1	6	-0.8	2	10	-3.0	2.6%
Cc1cc(C)c(C)c(OCC(=O)O/N=C(\N)c2cccnc2)c1	-22	0.6	-3	-12	-5.0	3.0%
Cc1ccc(N2C(=O)CSC23C(=O)Nc2ccccc23)cc1 (stereo not drawn)	-1	-1.5	-6	0	-2.8	-2.3%
COc1ccc(CN2CCC(CO)(Cc3cccc(C(F)(F)F)c3)CC2)cc1Cn1cccn1	-3	-0.8	-10	-10	-0.6	1.2%
Cc1[nH]c2ccccc2c1CN1CCc2ccccc2C1	48	-0.4	18	0	0.2	.
N#C/C(=C\c1cccnc1)C(=O)Nc1ccc(SC(F)F)cc1	-2	-1.1	2	-12	-2.8	5.2%
COc1ccc(CN=C2NC(=O)CC(C(=O)Nc3ccccc3C)S2)cc1 (stereo not drawn)	-2	0.9	-3	34	-1.1	1.2%
CC(Sc1nnc(-c2ccco2)n1C)C(=O)Nc1nccs1 (stereo not drawn)	3	-0.4	-7	-5	-5.4	4.3%
CC(=O)Cn1ncc(Br)c(Br)c1=O	0	-0.2	-9	12	-0.2	0.5%
Cc1nc(/C(N)=N/OC(=O)c2ccccc2Cl)c(C(F)(F)F)o1	21	1.2	20	-3	7.7	-0.8%
CN(Cc1ccc(Cl)s1)C(=O)CSc1nnc(C2CC2)n1C1CC1	-3	0.3	-2	-3	-4.5	-0.7%
Cc1ccc2c(CN(C)Cc3cccc(Cl)c3)cc(=O)oc2c1C	-1	0.9	-5	-6	-0.4	0.8%
COc1ccc(CNC(=O)C/C(C)=N/NC(=O)COc2ccccc2)cc1	-1	0.0	18	-16	-6.5	-0.1%

More entries:
SMILES	CtBP-E1A inh	TRPML1 agonist	Six1-Eya2 blk	TRPML1 inh	D2 agonist	PINK1 expr mod
O=C1CCC(C(=O)N2CCN(c3ccccc3)CC2)CN1CC1CCCCC1 (stereo not drawn)	15	0.1	-1	-10	5.7	0.5%
Cc1nc2nc[nH]n2c(=O)c1CCOC(=O)c1ccccc1F	-14	0.1	55	14	-1.5	0.0%
CC(C)c1ccc2occ(CC(=O)Nc3ccccc3Cl)c2c1	.	2.2	.	-7	.	0.0%
O=C(NCc1ccc(Cl)cc1)C(=O)Nc1nccs1	.	-0.5	9	-3	1.7	0.7%
Cc1nc2scc(C)n2c(=O)c1S(=O)(=O)NCCc1ccccc1	3	0.8&-0.1	0	-5&36	0.4	-0.1%&2.0%
COc1ccc(-n2c(/C=C/c3cc(OC)c(OC)cc3OC)nc3cc4ccccc4cc3c2=O)cc1Cl	.	8.6	.	13	.	12%
Cc1cc(/C=C2\C(=N)N3N=CSC3=NC2=O)c(C)n1Cc1ccccc1	-10	-0.4	-10	4	-1.8	3.0%
COc1ccc2oc(=O)cc(CN3CCN(C(=O)c4ccccc4)CC3)c2c1	.	-0.2	.	8	.	-0.5%
CSCCC(NC(=O)c1ccccc1Cl)C(=O)N1CCC1 (stereo not drawn)	11	0.9	5	-4	-5.6	-1.4%
CC1(C)CC(=O)C2=C(C1)Nc1cc(Cl)ccc1S2	0	-0.6	-8	2	?	-0.9%
CC1CCCC(C)N1C(=O)CN1C(=O)C(C)(C)Oc2ccc(C(=O)NC3CCCC3)cc21 (stereo not drawn)	2	-0.2	3	16	-1.5	-0.1%[38.3 µM]
Cc1nnc(SCCn2c(N3CCC(C)CC3)nc3c2c(=O)n(C)c(=O)n3C)s1	2	3.1	-1	-9	-1.2	-2.0%[38.3 µM]
O=C(CSc1nnc(-c2ccccc2)n1-c1ccccc1)NCc1ccco1	-4	1.4	13	11	-1.9	-1.1%
COC(=O)c1cc(NC(=O)C2(S(=O)(=O)c3ccc(Cl)cc3)CC2)cc(C(=O)OC)c1	-5	-0.6	-3	11	-4.0	1.2%
COc1ccc(NC(=O)c2cn(-c3ccccc3)nc2-c2ccc(C)cc2)cc1	.	1.5	.	-14	.	0.3%
CC(C)c1ccc(N2C(=O)[C@@H]3Cc4ccccc4CN3C2=O)cc1	-9	0.1	-17	2	-0.3	3.6%
OCC[C@H]1C[C@H](O)[C@@H](O)[C@@]2(CCCCO2)O1	4	-0.3	8	20	-0.8	0.9%
CCCSc1ccc([C@H]2N[C@@](CC(C)C)(C(=O)OC)[C@H]3C(=O)N(C)C(=O)[C@@H]23)cc1	-1	-1.1	-1	4	1.3	2.5%

Hits appear at their usual frequency, and some 1% of all compounds hit somewhere here.
